TRPV1 PAM – HTS Assay for Compounds that Act as Potentiators of the Vanilloid Receptor 1. 320,000 tested, 0.02% active. Transient receptor potential cation channel subfamily V member 1 (Homo sapiens), Q8NER1. TRPV1-expressing cells, Fluo-8 calcium influx, capsaicin EC20 potentiation; host cell line not named in the record; control for the full effect not named in the record. AID 540277, 2011. potentiation, % at 8.33 µM; active means potentiation above 80%; inconclusive means 30% to 80%; inactive means below 30%; further: 0% is about no effect
Target sequence (Q8NER1 whole entry, looked up): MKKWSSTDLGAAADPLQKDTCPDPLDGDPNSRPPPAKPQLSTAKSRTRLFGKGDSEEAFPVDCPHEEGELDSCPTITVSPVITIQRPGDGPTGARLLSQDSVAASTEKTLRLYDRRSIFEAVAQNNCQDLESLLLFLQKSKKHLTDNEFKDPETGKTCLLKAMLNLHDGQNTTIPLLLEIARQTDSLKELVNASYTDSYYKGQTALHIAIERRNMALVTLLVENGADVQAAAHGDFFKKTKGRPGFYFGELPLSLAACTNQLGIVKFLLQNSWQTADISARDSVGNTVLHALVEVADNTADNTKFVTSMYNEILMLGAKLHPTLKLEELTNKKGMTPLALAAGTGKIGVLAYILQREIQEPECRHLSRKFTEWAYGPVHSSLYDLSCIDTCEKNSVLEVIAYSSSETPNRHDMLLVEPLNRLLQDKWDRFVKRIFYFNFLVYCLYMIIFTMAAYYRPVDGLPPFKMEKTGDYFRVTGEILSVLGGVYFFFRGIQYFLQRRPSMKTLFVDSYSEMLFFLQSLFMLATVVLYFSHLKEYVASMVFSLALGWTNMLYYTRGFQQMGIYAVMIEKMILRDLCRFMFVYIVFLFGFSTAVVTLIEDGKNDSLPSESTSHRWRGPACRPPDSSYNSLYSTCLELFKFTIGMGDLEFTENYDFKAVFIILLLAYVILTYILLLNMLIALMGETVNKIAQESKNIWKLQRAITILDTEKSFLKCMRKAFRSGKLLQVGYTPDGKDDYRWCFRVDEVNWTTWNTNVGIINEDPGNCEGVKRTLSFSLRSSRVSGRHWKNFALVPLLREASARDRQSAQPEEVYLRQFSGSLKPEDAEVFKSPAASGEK
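Cells expressing TRPV1 were dye-loaded with Fluo-8 and read kinetically: 10 s baseline, 3 min after compound (agonist portion), then 2 min after EC20 capsaicin (allosteric enhancer portion). Calcium-bound dye fluorescence at 480/520 nm.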
D2 PAM – Beta-Arrestin HTS for Positive Allosteric Modulators of the Human D2 Dopamine Receptor: Potentiators. 360,000 tested, 0.23% active. AID 624464, 2012. DiscoveRx D2 beta-arrestin cells, luminescence, 90 min; 100% = 57 uM dopamine signal. potentiation, % (no concentration beside the values). D(2) dopamine receptor (Homo sapiens), P14416; active = potentiation of 50% or more; inconclusive = 30% to 50%; inactive = 30% or less;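 further: compound concentration not given in the record; tested on top of an EC20 dose of dopamine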
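D2 cells co-treated with compound plus 50 nM dopamine (EC20) for 90 min at 37 deg C to detect potentiation. Beta-arrestin recruitment was read as enzyme-fragment luminescence after 1 h at ambient temperature. Full response was set by 57 uM dopamine.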
Six1-Eya2 inh – qHTS Assay for Inhibitors of the Six1/Eya2 Interaction. Homeobox protein SIX1 (Homo sapiens) + Protein phosphatase EYA2 (Homo sapiens), …. AlphaScreen GST-Six1/His-Eya2 binding, biochemical; active compounds read low; control for the full effect not named in the record. activity change, % (test concentration not listed). 360,000 tested, 0.56% active; in the data active = activity change below about -65%; inconclusive = about -30% to -65%; inactive = above about -30%; further: on the % scale 0 is the no-effect control and ±100 the full control effect
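AlphaScreen with GST-Six1 and His-Eya2 (5X mix: 250 nM and 500 nM), glutathione donor and nickel acceptor beads; buffer 50 mM Tris pH 8.0, 300 mM NaCl, 1 mM TCEP; 1 h at 37 C in the dark.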
TRPML1 ag – qHTS for Agonists of the Human Mucolipin Transient Receptor Potential 1 (TRPML1) | Mucolipin-1 (Homo sapiens), Q9GZU1 | TRPML1-expressing cells, Ca2+ dye fluorescence, FDSS; host cell line not named in the record; reference of the full effect not given here | activation, % (concentration not given with the values) | 410,000 tested, 0.12% active | AID 624414, 2012; in the data active = activation above about 50%; inconclusive = about 30% to 50%; inactive = below about 30%; further: 0% is about no effect; the text of the record puts the active cut at 80%
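Cells: TRPML1-DL, 1X Tet inducer, ~16 h at 37 degrees C/5% CO2. Dye: ABD Ca8 no-wash + quencher, 45-90 min RT. Read: 10 s baseline, compound add, 110 s agonist phase; 54-4 EC80 (4uM final), 110 s antagonist phase.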
CtBP-E1A inh – qHTS Assay for Inhibitors of the CtBP/E1A Interaction | CtBP / adenovirus E1A interaction (AlphaScreen) | AlphaScreen GST-E1A/His-CtBP binding, 1536-well; active compounds read low; control for the full effect not named in the record | activity change, % (no concentration beside the values) | 340,000 tested, 0.49% active | AID 651724, 2012; in the data active means activity change below about -65%; inconclusive means about -30% to -65%; inactive means above about -30%; further: on the % scale 0 is the no-effect control and ±100 the full control effect
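AlphaScreen with 125 nM GST-E1A and 125 nM His-CtBP (5X stocks) in Tris pH 8.0, 300 mM NaCl, BSA, Tween 20, TCEP. Compounds preincubated 2 h at 37 deg C, then glutathione donor/nickel acceptor beads added for 1 h at 37 deg C in dark.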
TRPML1 blocker – qHTS for Inhibitors of the Human Mucolipin Transient Receptor Potential 1 (TRPML1); Mucolipin-1 (Homo sapiens), Q9GZU1; TRPML1-inducible cells, Ca2+ dye fluorescence, FDSS; active compounds read low; inhibition of EC80 agonist-evoked calcium signal; activity change, negative = inhibition, % (no concentration beside the values); 390,000 tested, 0.02% active; AID 624415, 2012; in the data active means activity change below about -50%; inconclusive means about -30% to -50%; inactive means above about -30%;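 further: stimulus is agonist 54-4 at its EC80 concentration; on the % scale 0 is the no-effect control and ±100 the full control effect; compound concentration not given in the record; the text of the record puts the active cut at -80%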
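TRPML1-DL cells, Tet-induced overnight (~16 h, 37 °C) at 1,500 cells/well, were loaded with Ca8 no-wash dye plus quencher for 45-90 min at room temperature. Compounds were pinned during FDSS kinetic reading; agonist 54-4 at EC80 (4 uM final) then added.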
* = called active by the depositor; u = inconclusive; x = no result given; & = joins results of further samples.

smiles	D2 PAM	TRPML1 ag	TRPV1 PAM	TRPML1 blocker	Six1-Eya2 inh	CtBP-E1A inh
CNc1nc(CCN2C(=O)c3ccccc3C2=O)cs1	4	-0.2	x	0	4	1
Cn1c(=O)oc2cc(S(=O)(=O)NC3CCCc4ccccc43)ccc21 (stereo not drawn)	-6	-0.1	-6	1	0	1
Cc1cccc(OCCCN2CCOCC2)c1C	-2	0.0	1	0	1	14
CC1CC(C)CN(C(=O)c2ccc(-c3ccc([N+](=O)[O-])cc3)o2)C1 (stereo not drawn)	2	3.1	-4	-3	u	-22
CC1CC(C)CN(C(=O)COC(=O)CN2C(=O)c3ccccc3C2=O)C1 (stereo not drawn)	-4	-0.3	x	-4	10	8
NS(=O)(=O)c1cccc(NC(=O)COC(=O)COc2ccc3ccccc3c2)c1	-6	-0.4	-10	-13	-6	10
O=C1NC(NS(=O)(=O)c2ccccc2)(C(F)(F)F)C(=O)N1CCc1ccccc1 (stereo not drawn)	-3	-0.5&-0.5	14	-3&-5	2	3
CCN(CC)C(=O)Cn1cc(S(=O)(=O)CC(=O)Nc2ccc(F)cc2F)c2ccccc21	6	-0.1	8	17	7	0
CCn1c(SCC(=O)Nc2oc(C)c3c(C)n[nH]c(=O)c23)nnc1-c1ccco1	-19	0.0	x	3	-9	-19
Cc1ccc(C)c2[nH]c(=O)c(C(c3nnnn3Cc3ccccc3)N3CCc4ccccc4C3)cc12 (stereo not drawn)	-16	-0.6	4	1	-4	1
Cc1cc(C=O)c(C)n1-c1ccc(N2CCOCC2)cc1	-6	-0.9	5	-6	-13	-9
CN1C(=S)N(c2cccnc2)C(=O)/C1=C\c1ccc(C(C)(C)C)cc1	-10	3.5	22	1	-14	-5
CC(C)NC(=O)c1cc(C2CCCCN2S(=O)(=O)c2ccccc2)on1 (stereo not drawn)	-8	-0.5	x	10	-4	0
Cc1ccc2c(Cl)c(C(=O)Nc3cc(C)on3)sc2c1	-3	-0.1	30	14	8	-2
O=C(CSc1nnc2c(n1)[nH]c1ccc(S(=O)(=O)N3CCOCC3)cc12)Nc1ccc(F)c(F)c1	-2	-0.2	u	19	-10	-10

Continuation.
smiles	D2 PAM	TRPML1 ag	TRPV1 PAM	TRPML1 blocker	Six1-Eya2 inh	CtBP-E1A inh
Cc1ccc(NC(NC(=O)Cc2ccccc2)C(Cl)(Cl)Cl)cc1 (stereo not drawn)	-8	3.7	-9	20	1	4
O=C(Nc1cccc(C(F)(F)F)c1)c1cc2c(=O)c3ccccc3oc2nc1C(F)(F)F	-6	0.9	-10	5	-1	-2
Cc1ccc(C(C(=O)Nc2ccc3c(c2)OCO3)N(C)C(=O)/C=C\c2ccc3c(c2)OCO3)cc1 (stereo not drawn)	-12	0.0	3	22	-28	1
COc1ccc(CCNC(=O)c2cc(S(=O)(=O)N(C)c3ccccc3)ccc2Cl)cc1	-3	3.0	-12	32	-5	1
CCNS(=O)(=O)c1ccc(CCC(=O)NCc2ccc(C)cc2)cc1	-5	-0.9	-1	-3	-3	-2
COc1ccccc1N1CCN(Cc2cc3c(cc2O)OCO3)CC1	-18	0.4	3	-11	-21	-16
CC1CCN(c2oc(Cc3cccc4ccccc34)nc2C#N)CC1	-23	2.0	x	9	u	u
Clc1cc(CSc2ccccc2)nc(-c2ccccc2)n1	-12	1.1	-16	-12	44	48
Cc1cccc(N(Cc2ccccc2)C(=O)c2ccc(F)c(S(=O)(=O)N3CCOCC3)c2)c1	-16	1.3	2	0	-2	-3
Nc1nc(COC(=O)c2ccco2)nc(Nc2ccccc2)n1	-9	-0.7	x	0	1	5
CC(C)(C)c1ccc(/C=N/N2C(=O)CSC2=S)cc1	5	0.0	5	17	-17	u
O=S(=O)(Nc1ccc(N2CCOCC2)cc1)c1c(F)cc(F)cc1Br	-3	0.3	3	1	-6	-1
COc1ccc(CN2CCN(CCSc3ccc(C)cc3)CC2)c(OC)c1OC	-60	-0.1	10	-16	-2	x
CN(C(=O)c1ccccn1)c1nnc(-c2cnccn2)s1	-31	-0.2	-15	17	0	-7
CC#CC(=O)N1CCC(C(=O)Nc2ccc(Oc3ccccc3)nc2)CC1	-12	-0.1	4	22	3	2

The final 2 compounds of the section before come first, to join the parts.
smiles	D2 PAM	TRPML1 ag	TRPV1 PAM	TRPML1 blocker	Six1-Eya2 inh	CtBP-E1A inh
CN(C(=O)c1ccccn1)c1nnc(-c2cnccn2)s1	-31	-0.2	-15	17	0	-7
CC#CC(=O)N1CCC(C(=O)Nc2ccc(Oc3ccccc3)nc2)CC1	-12	-0.1	4	22	3	2
CCOC(=O)c1cnn2c(C(F)(F)F)cc(-c3ccco3)nc12	-13	-0.5	11	30	11	6
O=C(c1ccc(Cl)cc1)c1ccc(OCC(=O)N2CCOCC2)cc1	8	-0.6	5	10	-1	-7
CCOC(=O)C1(Cc2ccccc2)CCCN(Cc2ccncc2)C1 (stereo not drawn)	-12	0.3	23	-11	-2	3
NC(=O)c1ncc(C(F)(F)F)cc1Oc1ccc(F)cc1	-4	-0.4	13	-12	4	3
COCCNC(=S)c1ccc(Br)cc1	-5	0.2	12	43	13	6
O=C(NCCN1CCC(Cc2ccccc2)CC1)C1CCCN(S(=O)(=O)c2cnc[nH]2)C1 (stereo not drawn)	-5	0.3	-4	9	8	-2
Cn1cc(C(=O)c2ccc(Cl)cc2Cl)cc1C(=O)O	-11	1.0	-2	-5	2	1
O=C(NNc1ccccc1)/C(=C\c1cccnc1)NC(=O)c1ccccc1	-14	-0.5	12	0	4	x
O=C1C(Cl)=C(NCC2CCCO2)C(=O)N1C1CCCCC1 (stereo not drawn)	-3	-0.3	16	-9	21	20
CN(C1=NC(=O)C(CC(=O)O)S1)c1ccc(O)cc1 (stereo not drawn)	-5	-0.5	-3	-26	2	-3
O=C(Nc1nccc(-c2cccs2)n1)c1ccccc1Cl	-21	-0.1	14	-9	3	-13
CCOc1ccc(C(C)=O)cc1CSc1nc(C)cc(C)n1	1	1.8	4	19	9	-2
N#Cc1ccccc1OCC(O)CS(=O)(=O)c1ccccc1 (stereo not drawn)	-4	-0.3	-11	-5	-23	-16
Cc1nc(NC(=O)c2ccco2)sc1-c1csc(Nc2ccc(Cl)cc2Cl)n1	-2	-0.1	1	-13	-12	-3
CC(=O)c1ccc(OCCCC(=O)OCC(=O)Nc2c(C)nn(-c3ccccc3)c2C)cc1	2	-0.7	-5	12	0	x

The listing continues.
smiles	D2 PAM	TRPML1 ag	TRPV1 PAM	TRPML1 blocker	Six1-Eya2 inh	CtBP-E1A inh
CN(C)CCCOc1ccc(-c2ccc3nccn3c2)cn1	-4	-0.5	x	x	-3	1
CCCNc1nc(N2CCCC2)nc(N2CCCC2)n1	-6	1.6	-3	29	14	-1
Cn1c(=O)c(=O)n(C)c2cc(S(=O)(=O)N3CCOc4ccccc43)ccc21	5	0.1	1	28	-14	-6
Cc1cc(NC(=O)/C(C#N)=C/c2ccc(-c3cccc(C(F)(F)F)c3)o2)n(-c2ccccc2)n1	2	2.8	-3	-10	2	-15
O=C(NCCNc1ccc([N+](=O)[O-])cc1)c1ccc(Cl)cc1	-11	-0.9	-6	17	-13	3
CC1(C(=O)O)CCN1C(=O)COc1ccc(Cl)cc1 (stereo not drawn)	-2	0.3	x	x	4	4
Cc1cc(NC(=O)Cn2c(=O)oc3ccc(Cl)cc32)no1	-6	1.2	20	3	3	x
COc1ccc(NC(=O)c2ccc(Cl)c(S(=O)(=O)NCC3CCCO3)c2)c(OC)c1 (stereo not drawn)	-14	-0.1	-9	-8	-7	-10
O=C(c1cccs1)N1C[C@@H](O)[C@H](n2cc(-c3ccc(F)cc3)nn2)C[C@@H]1c1ccccc1	-7	-0.3	x	-3	28	-5
COc1ccccc1CNc1ncnc2nc[nH]c12	-3	-0.9&-0.4&-0.4	12	9	-19	2
CC(C)=CCC/C(C)=C/CNC(=O)C[C@H]1C[C@H](C(=O)N2CCCCC2)[C@@]2(CCc3ccccc3)c3[nH]c4cc(CCC(=O)N(C)C)ccc4c3CCN2C1=O	x	-0.8	x	16	1	-1
Cc1cccc(C)c1OCCOC(=O)c1n[nH]c2ccccc12	-4	2.7	3	15	-1	-5
Cc1ccccc1CSCC(=O)NC(=O)NCc1ccco1	2	2.6	-5	-12	-14	-6
COc1ccc(C2C(C(C)=O)=C(O)C(=O)N2CCCn2ccnc2)cc1OC (stereo not drawn)	1	-0.6	3	31	10	2
O=C(O)CCCN=CC1=C(O)C(C(=O)c2ccccc2)CCC1=O (stereo not drawn)	-5	-0.7	-10	-4	12	-6

The list goes on:
smiles	D2 PAM	TRPML1 ag	TRPV1 PAM	TRPML1 blocker	Six1-Eya2 inh	CtBP-E1A inh
N=c1ccn(CC(=O)NC(N)=O)c2ccccc12	-10	0.4	12	-1	3	0
CCOC(=O)/C(=C(/C)N)C1CC(=O)NC1=O (stereo not drawn)	-6	-0.3	x	6	0	0
COc1ccc(NC(=O)c2cc3c([nH]c4ccccc43)c(C)n2)cc1	-5	0.1	29	-14	3	-8
COCCNC(=O)C(c1ccco1)N(C(=O)Cn1nnc2ccccc21)c1cccc(C)c1C (stereo not drawn)	-7	-0.4	-18	-4	2	-1
COc1ccc(C(=O)c2oc3ccc(Br)cc3c2NC(C)=O)cc1	-3	0.3	-8	8	4	7
CC(C)N=c1cc2n(-c3ccc(Cl)cc3)c3ccccc3nc-2cc1Nc1ccc(Cl)cc1	-7	-0.5	x	17	u	-20
Cc1ccc(N(C(=O)CCC(=O)Nc2nccs2)C(C(=O)NC(C)(C)C)c2ccc(O)cc2)cc1 (stereo not drawn)	-7	-0.2	6	-4	1	9
CCc1cc[n+](C(C(=S)Nc2cccc(C)c2)=C([O-])c2ccc(C)c([N+](=O)[O-])c2)cc1	-36	0.9	x	3	-13	0
O=C(Cc1cccc2ccccc12)N/N=C/c1ccc(OC(=O)/C=C/c2ccco2)cc1	-18	1.6	2	15	u	u
Cc1ccc(Cn2ccsc2=NC(=O)COC(=O)C(C)C)cc1	-2	0.5	25	5	2	8
O=C(O)c1ccccc1C(=O)N1CCN(S(=O)(=O)c2cccc(C(F)(F)F)c2)CC1	-2	-0.5	x	7	8	2
Cc1ccc2oc(C(=O)Nc3nnc(C)s3)c(C)c2c1	-3	-0.4	7	5	4	1
OC(Cn1ccnc1)c1ccc(Cl)cc1Cl (stereo not drawn)	-1	-0.8	-4	2	12	2
O=C(O)C1CCCCC1C(=O)Nc1cc(C(F)(F)F)ccc1Cl (stereo not drawn)	-10	2.4	11	5	4	x
